Autofluor counter: compound fluorescence in toxin protease inhibitor counterscreen | AID 624483 | compound autofluorescence counterscreen, microsphere flow cytometry; active compounds read high | fluorescence intensity (no concentration beside the values) | 3.1% of 360,000 active;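 active means at least 3 SD above the mean of all compounds, about 16000 in these data; inconclusive means too few beads counted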;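 further: 100 nL of 1 mM stock went into each well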
Sa RN4220 lethal: S. aureus RN4220 growth inhibition. AID 1259311. OD600, 16 h. inhibition, % (no concentration beside the values). 0.33% of 330,000 active;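 active means z-score of -3 or lower and OD600 up to 0.18 on both plates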;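 further: plate controls were untreated cells for no effect and reference antibiotic for full effect; stock transfer was 100 nL into about 80 µL; one replicate is shown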
PrP 5UTR inh: inhibition of PrP 5' UTR reporter expression. cell-based PrP 5' UTR mRNA reporter, plate reader. inhibition, % (test concentration not listed). 0.35% of 340,000 active. AID 488862;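 active means every replicate at 50% or more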;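 further: 0 = median of the neutral control wells; tested in H4 reporter cells; numbers are from one replicate; inactives centre near -14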
Mtb hypoxia inh: Mtb hypoxia fluorescent reporter inhibition; M. tuberculosis hypoxia-regulated fluorescent reporter, fluorescence; fluorescence inhibition, % (test concentration not listed); 0.1% of 300,000 active;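 active means 35 to 45% if threefold the growth effect, above 45% if 1.5-fold the growth effect; inactive means the rest, general growth blockers included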;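 further: wells of about 50 µL received 100 nL stock; 0% = vehicle wells and 100% = reference inhibitor wells; whole bacteria with a GFP reporter of the hypoxia response; strong numbers were not always called active; many hits fall short of the cut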
ugtP null kill: kills S. aureus RN4220 lacking UgtP; S. aureus RN4220 ugtP deletion, OD600 growth, 16 h; some inactives read as strong as hits; growth inhibition, % (no concentration beside the values); 0.54% of 330,000 active; AID 1259309;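 active means z-score under -3 and OD600 up to 0.15 on both plates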;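 further: plate controls were untreated wells for no effect and antibiotic for full effect; wells of about 80 µL received 100 nL stock; the first replicate is given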
BJeLR lethal: BJeLR cell viability loss; 0.17% of 300,000 active; inhibition, % (test concentration not listed); BJeLR (HRASV12) viability, CellTiter-Glo ATP luminescence, 48 h; reference of the scale not given here;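 active means replicate mean above 50%; inconclusive means above 50% but judged a plate artefact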;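 further: 50 nL library stock added to about 25 µL; numbers are from one replicate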
Mtb hypoxia inh growth: recorded beside Mtb hypoxia inh, whose call it bears; growth inhibition, %; measured here: M. tuberculosis growth (absorbance);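 0% = vehicle and 100% = reference antibiotic; read after six days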
* marks the source's active call; other numbers are inactive results; ? = inconclusive; · = no result given.

Order of values – Mtb hypoxia inh growth, Sa RN4220 lethal, PrP 5UTR inh, Autofluor counter, ugtP null kill, BJeLR lethal, Mtb hypoxia inh
1: COC(=O)C1=CN(Cc2ccc(C)cc2)C=C(C(=O)OC)C1c1ccc(F)c(F)c1
    1, -8.8, -18, 3920, 1, 4, 3
2: CCOCCCNC(=O)c1cccc(NC(=O)C2=C(C)OCCS2)c1
    11, 1.1, -22, 4171, -1, -1, 8
3: CCc1cc2c(SCC(=O)Nc3cc(C)on3)ncnc2s1
    1, 1.9, -45, 4509, 7, 2, -1
4: CCOc1ncccc1C(=O)Nc1cccc(-c2nc3cccnc3s2)c1
    -1, 18, -3, 3587, 23, 3, -1
5: COc1ccc(S(N)(=O)=O)cc1C(=O)OCC(=O)NC(C)(C#N)C1CC1 (stereo not drawn)
    7, -0.7, 0, 3625, -4, ·, -5
6: C#CC[N+]1(C)[C@@H]2CC(OC(=O)C(CO)c3ccccc3)C[C@H]1C(O)C2 (stereo partly drawn)
    4, 3.4, 4, 3759, 8, -11, 7
7: COc1ccccc1OCc1csc(NC(=O)c2ccco2)n1
    2, 6.3, -60, 2318, -19, 4, 8
8: O=C1c2ccccc2C(=O)N1CCSc1ccccc1
    5, 7.3, -56, ?, 7, -3, 6
9: COc1ccc(N(Cc2cc3cccc(C)c3[nH]c2=O)C(=O)C2CCCO2)cc1 (stereo not drawn)
    5, 4.5, -23, 4123, 5, 17, 0
10: CCN(CC)C(=O)c1[nH]cnc1C(=O)Nc1cccc(Cl)c1
    7, 1.8, -16, 3617, -9, ·, 6
11: Cc1cc(OC(=O)c2ccc(Cl)cc2)cc(=O)n1C
    ·, -1.6, -10, 5289, 0, -9, ·
12: Cc1csc(SCC(=O)Nc2cc([N+](=O)[O-])ccc2F)n1
    -6, 8.7, -15, ·, 3, ·, -7
13: O=C(NC1CCCCCC1)c1cc(S(=O)(=O)N2CCOCC2)ccc1F
    5, -0.3, -8, 5293, 1, 1, -3
14: Cc1ccc(C(=O)/C=C/Nc2cccc([N+](=O)[O-])c2)o1
    6, 7.4, -59, 2059, 6, -3, -3
15: Cc1nn(-c2ccc(F)cc2F)c2c1-c1nc(N3CCCC3)ncc1CC2
    13, 2.3, -14, 23757*, -33, -8, 6
16: CCCOc1cccc(C2C(C(=O)c3ccco3)=C(O)C(=O)N2CCCn2ccnc2)c1 (stereo not drawn)
    0, 1.7, -6, 5558, 1, -2, -1
17: Cc1ccc(S(=O)(=O)Cn2nnnc2C(CC(C)C)N2CCN(C3CCCC3)CC2)cc1 (stereo not drawn)
    5, 1.8, -31, 5204, 19, 7, 8
18: Cc1onc(CO)c1C(=O)Nc1nccs1
    -5, 4.4, -15, 3901, 5, -6, 5
19: COc1cc(C(=O)N2CCN(C)C(C)C2)ccc1OC1CCN(C(C)=O)CC1 (stereo not drawn)
    5, -3.0, -10, 6220, -6, 3, -8
20: O=C(NCc1cccc(F)c1)C1CCC(=O)N(CCc2cccc(F)c2)C1 (stereo not drawn)
    12, 1.2, -17, 5412, -2, -4, 5
21: Cc1ccc(N2CC(O)Cn3c2nc2c3c(=O)n(C)c(=O)n2C)cc1 (stereo not drawn)
    -8, 1.0, 14, 3225, 3, -11, -5
22: CC(=O)c1ccc(N2CCN(C(=O)Nc3ccc(F)cc3)CC2)cc1
    4, 13, -12, 4244, 7, 3, -7
23: COc1ccc2[nH]cc(C(=O)C(=O)N3CCCCC3)c2c1
    ·, -0.7, -2, 5665, 4, 11, ·
24: CCOC(=O)COn1c(=O)c(-c2ccco2)[n+]([O-])c2ccccc21
    ·, 2.8, -11, 4872, -1, -2, ·
25: CCCN1C(=O)C(Cc2nc3ccccc3c(=O)n2-c2ccccc2)c2ccccc21 (stereo not drawn)
    7, 17, -19, 1952, 15, 8, 2
26: N#CNC(=Nc1cccc(F)c1)SCc1ccccc1
    5, 1.2, -16, 2674, -1, -4, 2
27: CC(CC(=O)NNC(=O)c1ccncc1)c1ccccc1 (stereo not drawn)
    1, 1.2, -11, 5626, 0, 0, 9
28: CCCCOc1ccc(N2CC(C(=O)NCCc3ccc(OC)c(OC)c3)CC2=O)cc1 (stereo not drawn)
    4, 3.4, -7, 3494, -3, 1, -1
29: CCOC(=O)C(C(=O)OCC)C(C[N+](=O)[O-])c1ccccc1 (stereo not drawn)
    13, 2.9, -23, 2047, 10, -6, 15
30: COCCn1c(SCC(=O)N2CCCc3ccccc32)nc2cccnc21
    ·, 2.9, -11, 4400, 7, 1, ·
31: COc1ccccc1/C=C/CN1CCC(Oc2ccc(C(=O)N3CCCCC3)cc2)CC1
    3, 0.8, -14, 5032, 2, 11, 0
32: O=C(O)Cc1ccc(C(=O)CSc2ccccc2)s1
    -4, 9.0, -15, 4323, 27, 1, 6
33: CCc1nn(CC(=O)NCCN2CCOCC2)c(=O)c2cc3c(OC)cccc3n12
    3, 4.4, 1, 6349, 13, -15, 11
34: Cc1cc(=O)[nH]c(SCc2nnc(-c3ccccc3)o2)n1
    6, 0.7, -24, 3015, -4, -7, 3
35: COc1ccc(CCNC(=O)Cc2cc(OCc3ccccc3)c(OC)cc2[N+](=O)[O-])cc1OC
    ·, 1.6, -19, 3512, 6, 1, ·
36: Cc1ccc(C)c(-n2ccnc2SCC(=O)c2c(N)n(C3CC3)c(=O)[nH]c2=O)c1
    2, 6.3, -30, 3042, 9, ·, 5
37: CC(=O)Nc1ccc(S(=O)(=O)Nc2cccc(-n3cnnn3)c2)cc1
    4, 3.5, -18, 6065, 4, -10, 4
38: COc1ccccc1/C=N/NC(=O)CC(=O)Nc1ccc(Cl)c(Cl)c1
    ·, ·, -4, ?, ·, -8, ·
39: CCOC(=O)C(=O)NC1CCSC1=O (stereo not drawn)
    1, 1.0, -40, 7684, 4, 5, 13
40: COc1ccc(CNC(=O)CN(Cc2ccc(F)cc2)C(=O)CCC(=O)Nc2nccs2)cc1
    11, 2.9, 2, 3564, 3, -3, 3
41: CCOc1ccc(C(=O)NNC(=O)c2cc(S(=O)(=O)N3CCOCC3)ccc2Cl)cc1
    5, -2.9, -13, ?, 0, ·, 10
42: CCCCNC(=O)O/N=C(\N)CS(=O)(=O)C(C)(C)C
    ·, ·, -13, 5446, ·, -11, ·
43: O=C(OCC(=O)c1cccs1)c1cccc(C(=O)OCC(=O)c2cccs2)n1
    15, 4.7, -20, 12784, 2, 0, 3
44: CC(=O)Nc1ccc(S(=O)(=O)NCc2nc(-c3ccc(C)cc3)no2)cc1
    2, 4.6, -1, 4584, 1, 4, -1
45: COC(=O)CSC1=C(C#N)C(c2ccsc2)CC(=O)N1 (stereo not drawn)
    ·, 1.5, -2, 4386, 3, 3, ·
46: Cc1ccc(S(=O)(=O)Nc2ccc3c(c2)CC(=O)N(C(C)CO)CC(C)C(CN(C)Cc2ccc4c(c2)OCO4)O3)cc1 (stereo not drawn)
    12, -1.1, ·, ·, 4, ·, 5
47: CC(NC(=O)Cc1cccs1)c1ccc2c(c1)OCO2 (stereo not drawn)
    14, 0.7, -29, 10956, -2, 4, 16
48: O=C(CCN1C(=O)COc2ccccc21)NCCC1=CCCCC1
    2, 8.5, -16, 7196, 4, -15, 3
49: Cc1ccc(S(=O)(=O)N=c2sccn2C)cc1
    12, -0.6, ·, ·, 0, ·, 7
50: O=C(NN=Cc1ccccn1)c1ccc([N+](=O)[O-])cc1Cl
    -7, 5.8, ·, ·, 6, ·, -4
51: O=c1oc2ccc(C#CC3(O)CCCCC3)cc2cc1-n1cc(C2(O)CCCCC2)nn1
    13, 9.3, -15, 4239, 2, ·, 10
52: O=C(COC(=O)c1ccccc1NC(=O)c1ccco1)NCc1ccc2c(c1)OCO2
    4, -1.9, -6, 3042, -6, 3, 3
53: CCn1c(C)nc2cc(C(=O)NNC(=S)Nc3ccc(Cl)cc3)ccc21
    -2, -1.6, -16, 5318, -3, 9, -5
54: O=C1CC(c2cc(F)ccc2F)c2cc3c(cc2N1)CCC3 (stereo not drawn)
    5, 0.7, -13, 2420, -16, 19, 11
55: CC(=O)Nc1ccc(NC(=O)Nc2ccccc2C)cc1
    3, 4.9, -21, 4343, 2, 7, -2
56: COc1cc(CC(=O)NNC(=O)c2cccs2)cc(OC)c1OC
    -6, 2.4, -13, 8588, 5, ·, -8
57: CCSc1cc(N2CCCC2)nc(-c2cccc(C)c2)n1
    5, 6.5, -1, 1943, 4, 9, 14
58: N#Cc1ncc(C(F)(F)F)cc1Sc1ccccc1N
    ·, -1.5, -34, 2735, -13, -7, ·
59: O=C1COc2ccc(-c3csc(NCC4CCCO4)n3)cc2N1 (stereo not drawn)
    ·, 1.2, -41, 2653, -2, -3, ·
60: CC1CCCN(C(=S)NC2CCCC2)C1 (stereo not drawn)
    7, 2.2, -16, 3725, 0, 7, 14

Entries 59–60, reprinted for reference:
Order of values – Mtb hypoxia inh growth, Sa RN4220 lethal, PrP 5UTR inh, Autofluor counter, ugtP null kill, BJeLR lethal, Mtb hypoxia inh
59: O=C1COc2ccc(-c3csc(NCC4CCCO4)n3)cc2N1 (stereo not drawn)
    ·, 1.2, -41, 2653, -2, -3, ·
60: CC1CCCN(C(=S)NC2CCCC2)C1 (stereo not drawn)
    7, 2.2, -16, 3725, 0, 7, 14

The listing continues:
Order of values – Mtb hypoxia inh growth, Sa RN4220 lethal, PrP 5UTR inh, Autofluor counter, ugtP null kill, BJeLR lethal, Mtb hypoxia inh
61: COC(=O)c1sccc1NC(=O)C1CC2CCC1C2 (stereo not drawn)
    10, 6.1, -6, 6238, 19, -2, 14
62: N#CCC(=O)NCC1(c2ccccc2)CCCC1
    ·, -1.1, -9, 2811, 1, -7, ·
63: CC(=O)c1ccc(NC(=O)COC(=O)c2ccccc2N=Nc2ccc(N(C)C)cc2)cc1
    6, 9.1, -29, 9810, 28, -9, 3
64: O=C(CN1CCN(c2ccccc2)CC1)N1CCc2ccccc21
    0, 2.8, -11, 3786, 1, -4, 6
65: Cc1ccc(S(=O)(=O)/C(C#N)=C/c2ccccc2OCc2ccccc2)cc1
    5, 9.2, -22, 2058, 3, 5, 10
66: O=C(C1=C(c2ccccc2)C(=O)c2ccccc2C1=O)c1ccccc1
    9, 97*, -18, 2183, 96*, 32, 7

Structures listed so far with an aryl methoxy group:
Order of values – Mtb hypoxia inh growth, Sa RN4220 lethal, PrP 5UTR inh, Autofluor counter, ugtP null kill, BJeLR lethal, Mtb hypoxia inh
5: COc1ccc(S(N)(=O)=O)cc1C(=O)OCC(=O)NC(C)(C#N)C1CC1 (stereo not drawn)
    7, -0.7, 0, 3625, -4, ·, -5
7: COc1ccccc1OCc1csc(NC(=O)c2ccco2)n1
    2, 6.3, -60, 2318, -19, 4, 8
9: COc1ccc(N(Cc2cc3cccc(C)c3[nH]c2=O)C(=O)C2CCCO2)cc1 (stereo not drawn)
    5, 4.5, -23, 4123, 5, 17, 0
19: COc1cc(C(=O)N2CCN(C)C(C)C2)ccc1OC1CCN(C(C)=O)CC1 (stereo not drawn)
    5, -3.0, -10, 6220, -6, 3, -8
23: COc1ccc2[nH]cc(C(=O)C(=O)N3CCCCC3)c2c1
    ·, -0.7, -2, 5665, 4, 11, ·
28: CCCCOc1ccc(N2CC(C(=O)NCCc3ccc(OC)c(OC)c3)CC2=O)cc1 (stereo not drawn)
    4, 3.4, -7, 3494, -3, 1, -1
31: COc1ccccc1/C=C/CN1CCC(Oc2ccc(C(=O)N3CCCCC3)cc2)CC1
    3, 0.8, -14, 5032, 2, 11, 0
33: CCc1nn(CC(=O)NCCN2CCOCC2)c(=O)c2cc3c(OC)cccc3n12
    3, 4.4, 1, 6349, 13, -15, 11
35: COc1ccc(CCNC(=O)Cc2cc(OCc3ccccc3)c(OC)cc2[N+](=O)[O-])cc1OC
    ·, 1.6, -19, 3512, 6, 1, ·
38: COc1ccccc1/C=N/NC(=O)CC(=O)Nc1ccc(Cl)c(Cl)c1
    ·, ·, -4, ?, ·, -8, ·
40: COc1ccc(CNC(=O)CN(Cc2ccc(F)cc2)C(=O)CCC(=O)Nc2nccs2)cc1
    11, 2.9, 2, 3564, 3, -3, 3
56: COc1cc(CC(=O)NNC(=O)c2cccs2)cc(OC)c1OC
    -6, 2.4, -13, 8588, 5, ·, -8

Compound activity deposited in PubChem by several laboratories.
